ugtP null kill: compounds lethal to S. aureus RN4220 ugtP deletion mutant. OD600 growth, 16 h; some inactives read as strong as hits. growth inhibition, % (concentration not given with the values). 330,000 tested, 0.54% active;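 active = z-score under -3 and OD600 up to 0.15 on both plates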;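 also: plate controls were untreated wells for no effect and antibiotic for full effect; wells of about 80 µL received 100 nL stock; the first replicate is given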
Bead autofluor: counter-screen for toxin protease inhibitors: compound fluorescence; compound autofluorescence counterscreen, microsphere flow cytometry; hits give high values; 360,000 tested, 3.1% active; AID 624483; fluorescence intensity (no concentration beside the values);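 active = at least 3 SD above the mean of all compounds, about 16000 in these data; inconclusive = too few beads counted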;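 also: 100 nL of 1 mM stock went into each well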
PrP UTR inh: inhibition of PrP 5' UTR reporter expression; cell-based PrP 5' UTR mRNA reporter, plate reader; inhibition, % (concentration not given with the values); 340,000 tested, 0.35% active;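 active = every replicate at 50% or more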;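 also: 0 = median of the neutral control wells; tested in H4 reporter cells; numbers are from one replicate; inactives centre near -14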
Sa RN4220 lethal: S. aureus RN4220 growth inhibition; OD600, 16 h; AID 1259311; 330,000 tested, 0.33% active; inhibition, % (no concentration beside the values);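 active = z-score of -3 or lower and OD600 up to 0.18 on both plates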;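 also: plate controls were untreated cells for no effect and reference antibiotic for full effect; stock transfer was 100 nL into about 80 µL; one replicate is shown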
BJeLR viability: kills HRASV12-expressing BJeLR cells; AID 1554; 300,000 tested, 0.17% active; inhibition, % (no concentration beside the values); BJeLR (HRASV12) viability, CellTiter-Glo ATP luminescence, 48 h; reference of the scale not given here;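 active = replicate mean above 50%; inconclusive = above 50% but judged a plate artefact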;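 also: 50 nL library stock added to about 25 µL; numbers are from one replicate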
Mtb hypoxia inh: inhibitors of hypoxia-regulated fluorescent reporter in Mycobacterium tuberculosis; M. tuberculosis hypoxia-regulated fluorescent reporter, fluorescence; AID 1159583; 300,000 tested, 0.1% active; fluorescence inhibition, % (test concentration not listed);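 active = 35 to 45% if threefold the growth effect, above 45% if 1.5-fold the growth effect; inactive = the rest, general growth blockers included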;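 also: wells of about 50 µL received 100 nL stock; 0% = vehicle wells and 100% = reference inhibitor wells; whole bacteria with a GFP reporter of the hypoxia response; strong numbers were not always called active; many hits fall short of the cut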
Mtb hypoxia inh growth: further read-out of Mtb hypoxia inh, marked with its call; growth inhibition, %; measured here: M. tuberculosis growth (absorbance);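 0% = vehicle and 100% = reference antibiotic; read after six days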
The depositor's hits bear a star; ? = inconclusive; nt = not tested or not shown.

The first 3 entries (preview)
#1 CCN(CC)S(=O)(=O)c1cccc(NC(=O)c2cc(-c3cccs3)nn2-c2ccccc2)c1
#2 CCCC(=O)Nc1c(-c2ccccc2)c(=O)c(C)nn1-c1ccc(Cl)cc1
#3 COc1cccc(NC(=O)COC(=O)c2ccco2)c1

compound no. | 1 | 2 | 3
ugtP null kill | nt | nt | -3
Bead autofluor | 2475 | 2679 | 2924
PrP UTR inh | -6 | -30 | -14
Sa RN4220 lethal | nt | nt | 9.7
BJeLR viability | -3 | 0 | -7
Mtb hypoxia inh | nt | nt | 17
Mtb hypoxia inh growth | nt | nt | 8

This part in full, repeating the preview:
#1 CCN(CC)S(=O)(=O)c1cccc(NC(=O)c2cc(-c3cccs3)nn2-c2ccccc2)c1
#2 CCCC(=O)Nc1c(-c2ccccc2)c(=O)c(C)nn1-c1ccc(Cl)cc1
#3 COc1cccc(NC(=O)COC(=O)c2ccco2)c1
#4 Nc1c(N(Cc2ccco2)C(=O)c2cccc(F)c2)c(=O)[nH]c(=O)n1Cc1ccccc1
#5 COc1ccc(N2CCN(C(=O)C3CCN(S(=O)(=O)c4c(C)noc4/C=C/N(C)C)CC3)CC2)cc1
#6 CCO[C@H]1OC(C(=O)NC2CC2)=C[C@@H](c2ccc(Br)cc2)[C@@H]1CCCO
#7 O=C(Nc1cccnc1)c1ccc(S(=O)(=O)c2ccc(Cl)cc2)cc1
#8 Cc1ccc(-n2c3c(c(=O)[nH]c2=S)C(C(F)(F)F)(C(F)(F)F)NC(=O)N3)cc1

compound no. | 1 | 2 | 3 | 4 | 5 | 6 | 7 | 8
ugtP null kill | nt | nt | -3 | 7 | -1 | nt | 3 | 15
Bead autofluor | 2475 | 2679 | 2924 | 6060 | 5461 | 2821 | 3772 | 15762
PrP UTR inh | -6 | -30 | -14 | -9 | -2 | 7 | -24 | -14
Sa RN4220 lethal | nt | nt | 9.7 | 1.5 | 1.0 | nt | 4.9 | 6.4
BJeLR viability | -3 | 0 | -7 | nt | 3 | -9 | 12 | 3
Mtb hypoxia inh | nt | nt | 17 | -3 | 2 | nt | 9 | 11
Mtb hypoxia inh growth | nt | nt | 8 | -5 | 15 | nt | 8 | -6

#9 CC(C)(C)c1nnc(NC(=O)Cc2ccccc2[N+](=O)[O-])s1
#10 COCCNC(=O)C(OC(=O)c1cccs1)c1ccccc1 (configuration not stated)
#11 C1CCCN(CCCCN2CCCCCC2)CC1
#12 CCn1c(SCC(=O)N2CCN(c3ccc(F)cc3)CC2)nc2ccccc2c1=O
#13 Cc1cccc(CCNC(=O)Cn2ncc3c([nH]c4ccccc43)c2=O)c1
#14 CCN1CCC(NC(=O)c2cc(OC)c(OC)cc2OC)CC1
#15 ClCc1nc2ccccc2c2ccccc12
#16 COC(Cc1nnc(SC)n1-c1ccc(Cl)cc1)OC

compound no. | 9 | 10 | 11 | 12 | 13 | 14 | 15 | 16
ugtP null kill | 5 | 7 | 8 | 15 | -5 | 3 | -2 | -2
Bead autofluor | 1916 | 3847 | 21776* | 2600 | 5289 | 21698* | 5281 | 5623
PrP UTR inh | -7 | -16 | -13 | -7 | -9 | -4 | -31 | -28
Sa RN4220 lethal | 2.6 | 3.0 | 4.9 | 22 | 6.2 | 2.2 | 6.0 | 7.5
BJeLR viability | 5 | -4 | 6 | 0 | 9 | -5 | -3 | -12
Mtb hypoxia inh | 5 | 3 | 2 | 1 | 8 | 1 | 15 | 3
Mtb hypoxia inh growth | 7 | 11 | -4 | -2 | -6 | 1 | 17 | 9

#17 CC(C)(C)NC(=S)N=C(N)N[N+](=O)[O-]
#18 COc1ccc(C2C=CCN(S(=O)(=O)C=Cc3ccccc3)C(C)C(=O)N2Cc2ccc(F)cc2)cc1 (configuration not stated)
#19 CSCCC(NS(=O)(=O)c1ccccc1F)C(=O)NCc1cccnc1 (configuration not stated)
#20 CCOC(=O)C1=C(C)NC(=O)C(C(N)=O)C12CCCC2 (configuration not stated)
#21 COC(=O)c1ccc(-c2nn(C)c(=O)c3ccccc23)cc1
#22 Cc1cnc(C(=O)OCC(=O)NCc2cccc(Cl)c2)cn1
#23 Cc1cc(=O)oc2cc(OCC(=O)NCCc3ccccc3)ccc12
#24 O=C(Oc1cccnc1)c1cccc(Cl)c1

compound no. | 17 | 18 | 19 | 20 | 21 | 22 | 23 | 24
ugtP null kill | 6 | 4 | 2 | -3 | 7 | 6 | 2 | 7
Bead autofluor | nt | nt | 6542 | 23702* | 6154 | 3239 | 4312 | 8087
PrP UTR inh | nt | nt | -9 | -18 | -27 | -11 | -3 | -25
Sa RN4220 lethal | 3.0 | 7.7 | 3.2 | 1.6 | 2.1 | 4.1 | -3.3 | 2.1
BJeLR viability | nt | nt | 2 | 5 | 0 | nt | 3 | 1
Mtb hypoxia inh | 6 | 10 | -4 | 7 | 6 | 3 | 14 | 5
Mtb hypoxia inh growth | 4 | 18 | -7 | 4 | 8 | 3 | 4 | 1

#25 O=C(Nc1ccccc1C(=O)O)/C(=C/c1ccc(Cl)cc1Cl)NC(=O)c1ccco1
#26 O=C(CCCCCN1C(=O)c2ccccc2C1=O)NCCc1nc2ccccc2[nH]1
#27 Cc1ccc(C)c(NCc2ccccc2CO)c1
#28 Cc1ccccc1-c1nsc(SCC(=O)Nc2ccc3c(c2)OCO3)n1
#29 COc1cc(C)c(C(C)C)cc1S(=O)(=O)NC1CC(C)(C)NC(C)(C)C1
#30 Cc1ccc(S(=O)(=O)N(CC(O)CN2CCCC2)c2ccccc2)cc1 (configuration not stated)
#31 Cc1cc(C)[n+]2[nH]c(N)c(N=Nc3ccccc3)c2n1
#32 Cc1ccc(NC(=O)C(=Cc2ccc(C(=O)O)cc2)C(=O)Nc2ccc(C)cc2C)c(C)c1

compound no. | 25 | 26 | 27 | 28 | 29 | 30 | 31 | 32
ugtP null kill | -7 | -1 | 1 | 3 | nt | -2 | 11 | 19
Bead autofluor | 4003 | 4571 | 4614 | 2542 | 3525 | 8633 | nt | 4268
PrP UTR inh | 2 | -22 | -9 | -8 | -17 | 3 | -14 | -14
Sa RN4220 lethal | 1.3 | -0.8 | 4.0 | -1.3 | nt | 2.6 | 18 | 9.5
BJeLR viability | -7 | -3 | 1 | -11 | 4 | 1 | 3 | -13
Mtb hypoxia inh | -2 | nt | 0 | 9 | nt | -19 | 50* | 3
Mtb hypoxia inh growth | 1 | nt | 2 | 0 | nt | -2 | 18* | 14

#33 Cc1ccccc1-c1nc(-c2ccc(Br)o2)no1
#34 O=C(O)C1CCN(c2ccc(S(=O)(=O)N3CCCCC3)cc2[N+](=O)[O-])CC1
#35 Cc1ccc(NS(=O)(=O)c2ccc(C(=O)Nc3nncs3)cc2)cc1
#36 Cc1nnc(NC(=O)c2ccc3nccnc3c2)s1
#37 O=C(CN1CCc2ccccc2C1)Nc1ccc(F)cc1
#38 C=CCn1c(=NC(=O)c2ccc(S(=O)(=O)N3CCCc4ccccc43)cc2)sc2cc(S(N)(=O)=O)ccc21
#39 COc1ccc(CCNC2CCC(c3ccccc3)CC2)cc1 (configuration not stated)
#40 CCC1(CC)C(C#N)C(=O)NC(=O)C1C#N (configuration not stated)

compound no. | 33 | 34 | 35 | 36 | 37 | 38 | 39 | 40
ugtP null kill | 11 | 4 | 3 | -5 | -3 | -14 | -1 | 5
Bead autofluor | 3511 | 6187 | 4231 | ? | 3881 | 10353 | 4064 | 3767
PrP UTR inh | -80 | -10 | -19 | -20 | -30 | -20 | -7 | -8
Sa RN4220 lethal | 4.0 | 4.0 | -0.4 | 2.2 | 3.9 | 0.1 | -2.2 | 2.3
BJeLR viability | 2 | nt | nt | nt | 12 | -1 | 8 | nt
Mtb hypoxia inh | 13 | 2 | -1 | -9 | 18 | 4 | 0 | 22
Mtb hypoxia inh growth | 10 | 7 | 0 | 9 | 27 | -2 | 8 | 15

#41 COc1ccc(C(=O)CN2C(=O)NC3(CCCCCC3)C2=O)c(OC)c1
#42 Fc1cccc(/C=C2\CCCC3=C2NC(=S)NC3c2cccc(F)c2)c1 (configuration not stated)
#43 CNC1=C([N+](=O)[O-])CC([N+](=O)[O-])=C(N2CCNCC2)N1C
#44 Cc1cc2cc(CNC(=O)c3ccc(Br)o3)ccc2[nH]1
#45 Cc1cccc(NC(=S)NNC(=O)c2cccc([N+](=O)[O-])c2)c1
#46 CC(C)(C)n1cnc2cc(NC(=O)c3ccccc3)ccc21
#47 CN(C)S(=O)(=O)c1cccc(NC(=S)N/N=C/C(c2ccccc2)c2ccccc2)c1
#48 COC(=O)C(=NNc1ccccc1Cl)Sc1nnc(C(O)c2ccccc2)n1-c1ccccc1 (configuration not stated)

compound no. | 41 | 42 | 43 | 44 | 45 | 46 | 47 | 48
ugtP null kill | 5 | 22 | 0 | -12 | 7 | 3 | nt | -4
Bead autofluor | 5824 | 3941 | 2569 | 2858 | 3183 | 4356 | 8939 | nt
PrP UTR inh | -22 | -32 | -10 | -22 | -8 | -48 | -23 | nt
Sa RN4220 lethal | 5.9 | -7.8 | 5.6 | -1.8 | -0.6 | 3.0 | nt | 9.7
BJeLR viability | -10 | 0 | 4 | 10 | -7 | 0 | -13 | nt
Mtb hypoxia inh | 3 | -6 | 2 | -6 | 9 | 17 | nt | 5
Mtb hypoxia inh growth | 6 | 7 | 2 | 7 | 10 | 9 | nt | 8

#49 O=C(NCc1ccccc1)c1onc(CSc2ccc(F)c(F)c2)c1C(=O)NCc1ccccc1
#50 Cn1c(S(=O)(=O)Cc2ccc(Cl)cc2)nc2ccccc21
#51 OC(COc1ccc2ccccc2c1Br)Cn1ccnc1 (configuration not stated)
#52 CC(C)C(C(=O)O)N1C(=O)/C(=C/C=C/c2ccco2)SC1=S (configuration not stated)
#53 CC(C)c1c(C(=O)N/N=C/c2ccsc2)nnn1-c1nonc1N
#54 CC(O)C1CNC(=O)C(=O)N1CCCCC1CCCCC1 (configuration not stated)
#55 S=c1nc(-c2ccccc2Br)[nH][nH]1
#56 CCOc1ccc(C(=O)Nc2ccc(NC(=O)c3cccs3)cc2)cc1[N+](=O)[O-]

compound no. | 49 | 50 | 51 | 52 | 53 | 54 | 55 | 56
ugtP null kill | -1 | 1 | -14 | -9 | nt | -1 | 6 | nt
Bead autofluor | 4159 | 3456 | 3203 | 2959 | 5996 | nt | 5746 | 7389
PrP UTR inh | -9 | -10 | -19 | -23 | -24 | nt | -7 | -20
Sa RN4220 lethal | -7.4 | 2.8 | -18 | 31 | nt | 3.5 | 5.3 | nt
BJeLR viability | 13 | 11 | 13 | 0 | -10 | nt | 4 | -6
Mtb hypoxia inh | 18 | -6 | 9 | -10 | nt | -7 | 1 | nt
Mtb hypoxia inh growth | 10 | -4 | 6 | 4 | nt | 2 | 3 | nt

#57 COc1ccccc1CN1CCNC(=O)C1CC(=O)N(C)CC1CCOCC1 (configuration not stated)
#58 C=CCNc1oc(Cc2cccc3ccccc23)nc1C#N
#59 COc1nc(NCC(C)C)nc(Oc2ccc(=O)n(-c3ccccc3)n2)n1
#60 Cc1nn(CC(=O)Nc2ccc(C(=O)N3CCCC3)cc2)c(=O)c2ccccc12
#61 O=C(CCN1C(=O)/C(=C/c2ccccc2F)SC1=S)NCCCn1ccnc1
#62 COc1ccc(NC(=O)c2cnc3ccccn3c2=O)c(OC)c1
#63 COCC(=O)N1CCC(Oc2ccc(C(=O)NC(C)c3csc(C)n3)cc2)CC1 (configuration not stated)
#64 CCOC(=O)C(NC(C)=O)(Nc1ccc(S(N)(=O)=O)cc1)C(F)(F)F (configuration not stated)
#65 Cc1ccc(C)c(NC(=S)N2CCC(c3nc4ccccc4s3)CC2)c1
#66 Cc1cc(C)cc(N(CC(=O)NC2CCC(C)CC2)S(=O)(=O)c2c(C)[nH]c(=O)[nH]c2=O)c1 (configuration not stated)
#67 CCC(=O)c1cn(CC(=O)Nc2cccc(C)c2)c2ccccc12

compound no. | 57 | 58 | 59 | 60 | 61 | 62 | 63 | 64 | 65 | 66 | 67
ugtP null kill | 4 | 10 | -2 | 9 | 2 | 10 | -2 | -1 | -6 | -6 | 3
Bead autofluor | 5256 | 6160 | 6346 | 3165 | 5220 | 5764 | 6046 | 2563 | 5244 | 4524 | 3321
PrP UTR inh | -12 | 4 | -32 | -15 | 9 | -58 | -12 | -29 | -14 | nt | -15
Sa RN4220 lethal | 0.3 | 4.6 | -6.4 | 4.9 | 1.4 | 5.9 | 1.6 | -4.7 | -0.9 | 3.1 | 2.2
BJeLR viability | 0 | -1 | 4 | -10 | 8 | nt | -4 | -5 | 1 | -5 | -4
Mtb hypoxia inh | 8 | 12 | 8 | -2 | 8 | 1 | 4 | -1 | -4 | 1 | 1
Mtb hypoxia inh growth | 1 | 5 | 6 | -1 | 3 | -4 | 3 | 8 | 5 | 7 | 1

Bioassay records as filed in PubChem BioAssay.
